# PKD1 kinase inh: blocks activity of human protein kinase D1; inhibition, %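 (about 10 µM by stock and volumes)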; 200,000 compounds, 0.056% hits; Q15139; PKD1 kinase fluorescence polarization assay; AID 797;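 active = inhibition of 50% or more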;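 also: controls were vehicle for no effect and a reference inhibitor for full effect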
# Target sequence (Q15139 whole entry, looked up): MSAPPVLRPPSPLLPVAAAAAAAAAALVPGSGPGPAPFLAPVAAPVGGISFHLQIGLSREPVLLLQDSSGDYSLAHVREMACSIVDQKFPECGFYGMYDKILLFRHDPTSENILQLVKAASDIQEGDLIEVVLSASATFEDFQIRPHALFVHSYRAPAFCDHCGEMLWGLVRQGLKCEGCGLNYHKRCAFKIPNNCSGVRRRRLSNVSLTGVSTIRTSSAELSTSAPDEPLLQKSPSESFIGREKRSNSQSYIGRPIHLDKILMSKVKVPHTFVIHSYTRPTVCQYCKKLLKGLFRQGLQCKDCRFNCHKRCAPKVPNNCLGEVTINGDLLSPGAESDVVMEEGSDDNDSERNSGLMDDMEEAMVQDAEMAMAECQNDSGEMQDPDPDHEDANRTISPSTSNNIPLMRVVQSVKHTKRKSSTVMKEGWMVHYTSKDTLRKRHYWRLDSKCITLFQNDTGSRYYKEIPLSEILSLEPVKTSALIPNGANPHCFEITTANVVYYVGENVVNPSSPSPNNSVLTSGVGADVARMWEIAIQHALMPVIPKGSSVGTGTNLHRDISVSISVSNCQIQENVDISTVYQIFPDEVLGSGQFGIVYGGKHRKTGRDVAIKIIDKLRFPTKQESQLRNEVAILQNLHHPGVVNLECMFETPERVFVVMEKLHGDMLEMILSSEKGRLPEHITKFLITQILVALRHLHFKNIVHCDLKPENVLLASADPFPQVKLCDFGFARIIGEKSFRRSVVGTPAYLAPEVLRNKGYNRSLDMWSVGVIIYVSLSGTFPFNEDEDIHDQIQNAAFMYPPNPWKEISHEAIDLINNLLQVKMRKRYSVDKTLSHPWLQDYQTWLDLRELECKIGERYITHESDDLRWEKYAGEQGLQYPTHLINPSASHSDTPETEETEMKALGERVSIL
# HSV augment: increases HSV replication in cells | maximum fold increase | 220,000 compounds, 0.005% hits | HSV replication augmentation in cells, fold increase | AID 1956;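 active = peak rise of 1.5-fold or more in the series; tested in PC3 cells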;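 also: first round at 10 µM; read as green reporter fluorescence; hits show the peak of a series up to 25 µM; 1 = signal of infected wells without compound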
# GALR2 agonist: agonists of human galanin receptor 2 (GALR2) | activation, %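 (tested at 5 µM)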 | 140,000 compounds, 0.48% hits | GALR2-expressing cells, agonist activation read-out | AID 803 | O43603;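 active = above mean plus 3 SD of all compounds, about 5% in these data, not always enough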;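 also: 0% = vehicle buffer wells and 100% = reference agonist at full effect; tested in CHO reporter cells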
# Insulin prom inh: TRM-6 insulin promoter activity inhibition. 130,000 compounds, 0.9% hits. TRM-6 cells (human fetal islet line), insulin promoter-eGFP reporter, imaging; reporter expression induced with tamoxifen. AID 1273. inhibition, % at 2 µM;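 active = inhibition above the mean plus 3 SD, with well images judged a real hit on visual review, cut at about 60% in these data, passing the limit was not always enough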
# RGS16-Gao: RGS16-Galphao interaction regulator (human) | O15492+P09471 | bead-based flow cytometry RGS16-Galphao binding, fluorescence; actives lie on both sides | binding response (% of control), % at 10 µM | 220,000 compounds, 0.38% hits | AID 1441;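 active = below 25% or above 175%, edge rows of some plates excepted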;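 also: Galphao activated by GDP with aluminum fluoride before binding; 100% = wells without compound and 0% = beads without RGS; some results beyond the cut were filed as inactive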
# Insulin prom inh cell count: further read-out of Insulin prom inh, marked with its call; normalized cell count, %; measured here: cell count, toxicity; reference of the scale not given here;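 cells exposed to compound for 48 h; stained nuclei by imaging scaled within each plate; lower means fewer cells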
# HSV augment primary fold: also measured in HSV augment; calls as there; fold increase; compound at 10 µM; measured here: primary screen fold increase 10 uM; tested in PC3 cells;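 GFP signal in the first replicate; 1 = infected wells without compound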
# Numbers without * were called inactive; i = inactive; x = no result given. Compounds were not picked by outcome, and some 1.3% of all compounds hit somewhere here.
SMILES,PKD1 kinase inh,HSV augment,HSV augment primary fold,GALR2 agonist,Insulin prom inh,Insulin prom inh cell count,RGS16-Gao
CCSc1nnc(NC(=O)c2ccc3ccccc3n2)s1,-10,i,0.83,-1.8,15,131,183
NC(=O)[C@H]1CC2(CC(c3cccc(NC(=O)CC(c4ccccc4)c4ccccc4)c3)=NO2)CN1C(=O)CC(c1ccccc1)c1ccccc1 (stereo not given in full),x,i,0.83,x,x,x,104
Cc1ccc(/C=C/C(=O)NCc2ccc3c(c2)OCO3)o1,-9,i,1,-0.2,8,100,91
Cn1cnc2c1c(=O)n(Cc1ccc(F)cc1Cl)c(=O)n2C,-2,i,1,-2.1,x,x,98
CCOC(=O)COc1ccc2c(=O)c(-c3ccc(OC)c(OC)c3)c(C(=O)OCC)oc2c1,x,i,0.85,x,x,x,100
O=C(Nc1cccc(-c2cnc3ccccc3n2)c1)c1cccc(NC(=O)c2ccco2)c1,-9,i,0.71,-1.2,-7,93,101
COc1ccc2oc(C(=O)OCC(=O)/C(C#N)=C(\C)N)c(C)c2c1,-5,i,1.1,x,12,124,105
O=C(CN(c1ccc2c(c1)OCCO2)S(=O)(=O)c1ccccc1)NCc1ccc(Cl)cc1,-8,i,0.99,-1.7,-14,130,98
CN(C)C(=O)NCc1ccc(S(N)(=O)=O)cc1,-2,i,1.1,-3.4,50,108,96
COC(=O)[C@H](CCSC)NC(=O)Nc1cc(OC)cc(OC)c1,x,i,1.2,x,x,x,98
C=CCn1c(=O)n2ncnc2c2c3c(sc21)CCCC3,3,x,x,-1.4,4,110,96
Cc1nn(C(C)(C)C)c(OC(=O)c2ccco2)c1Sc1ccccc1,-6,i,0.77,-3.6,-39,207,100
COc1cc(NC(=O)c2cccs2)ccc1NC(=O)c1ccco1,-13,i,0.96,-4.8,-333,58,100
C=C(C)C(=O)Oc1ccc(N2C(=O)CCC2=O)cc1,x,i,0.82,x,x,x,94
CCc1ccc(NC(=O)CSc2nnc(-c3cnccn3)n2Cc2ccco2)cc1,-4,i,0.98,-0.9,-6,105,99
O=C(Cn1c(=O)c(=O)n(Cc2ccccc2)c2ccc(Cl)cc21)NCC1CCCO1 (stereo not given),-1,i,1,x,39,70,105
CCS(=O)(=O)N1Cc2ccccc2CC1C(=O)Nc1ccc(NC(C)=O)cc1 (stereo not given),4,i,1,-0.7,48,137,104
CCCN1C(=O)C(NC(=O)c2ccncc2)(C(F)(F)F)C2=C1CC(C)(C)CC2=O (stereo not given),1,i,0.78,-0.7,0,90,104
Cc1ccc2nc(NC(=O)c3cccc(-c4cc5ccccc5oc4=O)c3)sc2c1,-9,i,0.92,-0.9,25,120,113
O=C(OCC(=O)N1CCN(C(=O)c2ccco2)CC1)c1ccccc1O,0,i,0.99,-0.3,-10,92,101
Nn1c(Cc2cccc3ccccc23)nnc1SCCOc1ccc(Br)cc1,-2,i,0.78,-0.5,-64,114,106
O=C(Nc1ccc(F)cc1)c1cccnc1NCCc1ccccc1,2,i,1.1,0.4,-39,74,98
O=C(Nc1ccccc1-c1ccccc1)c1ccc(Br)o1,-5,i,1,13*,-20,86,33
C[C@@H]1NC(=O)c2cc([N+](=O)[O-])cc(I)c2OCC[C@@H](C(N)=O)NC(=O)[C@H](CCCCN)NC1=O,7,i,0.88,-1.0,-32,53,81
N#Cc1c(=O)c2nc(NCCCO)ncc2n2c(=O)c3ccccc3[nH]c12,8,i,1,x,-18,145,98

# Individual results from the results shown.
# HSV augment primary fold, CCc1ccc(NC(=O)CSc2nnc(-c3cnccn3)n2Cc2ccco2)cc1 stands at 0.98
# HSV augment primary fold, N#Cc1c(=O)c2nc(NCCCO)ncc2n2c(=O)c3ccccc3[nH]c12 stands at 1

# 4 of the compounds above, as labelled records.
> CN(C)C(=O)NCc1ccc(S(N)(=O)=O)cc1
  PKD1 kinase inh: -2 | HSV augment: i | HSV augment primary fold: 1.1 | GALR2 agonist: -3.4 | Insulin prom inh: 50 | Insulin prom inh cell count: 108 | RGS16-Gao: 96

> O=C(Cn1c(=O)c(=O)n(Cc2ccccc2)c2ccc(Cl)cc21)NCC1CCCO1 (stereo not given)
  PKD1 kinase inh: -1 | HSV augment: i | HSV augment primary fold: 1 | GALR2 agonist: x | Insulin prom inh: 39 | Insulin prom inh cell count: 70 | RGS16-Gao: 105

> COc1ccc2oc(C(=O)OCC(=O)/C(C#N)=C(\C)N)c(C)c2c1
  PKD1 kinase inh: -5 | HSV augment: i | HSV augment primary fold: 1.1 | GALR2 agonist: x | Insulin prom inh: 12 | Insulin prom inh cell count: 124 | RGS16-Gao: 105

> O=C(Nc1ccccc1-c1ccccc1)c1ccc(Br)o1
  PKD1 kinase inh: -5 | HSV augment: i | HSV augment primary fold: 1 | GALR2 agonist: 13* | Insulin prom inh: -20 | Insulin prom inh cell count: 86 | RGS16-Gao: 33

# The listing continues.
SMILES,PKD1 kinase inh,HSV augment,HSV augment primary fold,GALR2 agonist,Insulin prom inh,Insulin prom inh cell count,RGS16-Gao
CSc1nncn1/N=C/c1ccccc1F,6,i,1.1,-0.3,32,73,97
Cn1c(=O)oc2cc(S(=O)(=O)N3CCCC(C(=O)Nc4nccs4)C3)ccc21 (stereo not given),-8,x,x,-0.5,x,x,101
Cc1nn(Cc2ccc([N+](=O)[O-])cc2)c(=O)n1-c1ccccc1Cl,6,i,1,x,x,x,101
COc1cc(OC)c(C(=O)NCc2cccnc2)cc1OC,-2,i,0.97,x,23,85,102
CC1CCN(C(=O)c2ccc(S(=O)(=O)Cc3cc(F)ccc3F)c([N+](=O)[O-])c2)CC1,-11,i,0.54,-1.9,49,118,106
Cc1cc(C)cc(NC(=S)/N=C(\N)Nc2nc(C)c3ccccc3n2)c1,2,x,x,-0.8,x,x,105
CC(=O)N(C)c1ccc(NC(=S)NCC(C)C)cc1,0,i,0.94,x,x,x,98
CCOC(=O)N1CCC2(CC1)CC(=O)c1cc(O)ccc1O2,-14,i,0.99,-0.9,x,x,103
COC(=O)c1ccccc1NC(=O)c1ccc(Cn2cc(Cl)cn2)o1,-8,i,1,-1.5,-59,167,99
COc1ccc(C(C(=O)NC(C)(C)C)N(CC2CCCO2)C(=O)CCC(=O)Nc2cc(C)on2)cc1 (stereo not given),-2,i,0.99,-2.2,x,x,95
COc1ccccc1NS(=O)(=O)c1cc(NC(=S)NCCN2CCOCC2)ccc1N1CCOCC1,2,i,0.83,0.7,-33,131,84
CCOC(=O)c1cnc(/N=C/N(C)C)s1,0,i,0.99,x,x,x,99
CC(C)Cc1ccc(S(=O)(=O)N2CCCC2)cc1,2,i,1.2,-1.5,37,96,100
COc1ccc(S(=O)(=O)N2CC3CCCN3c3cc(C(F)(F)F)ccc32)cc1 (stereo not given),-8,i,1.1,0.0,-14,113,104
CC(O)C(NS(=O)(=O)c1ccc(Cl)cc1)C(=O)OCc1nnc(-c2ccccc2)o1 (stereo not given),-4,i,0.98,-2.1,-15,53,102
CC(C)C(OC(=O)c1cccs1)C(=O)NCc1cccs1 (stereo not given),-6,i,0.97,-1.1,-71,55,104
NNC(=O)c1cc2c(s1)CCCCCC2,-7,i,0.63,-1.6,3,51,89
COc1ccc(C(=O)CSc2nc3ncccc3[nH]2)cc1OC,x,i,0.69,x,x,x,95
CCc1nnc(NC(=O)CSc2ccc(-c3ccco3)nn2)s1,-7,x,x,x,-115,127,90
CCSC1=C(C#N)C2(CCCCC2)C2=C(CC(C)(C)CC2=O)N1,7,i,1,x,-53,105,107
COc1ccc(C2(C)NC(=O)N(CC(=O)Nc3ccc(S(=O)(=O)N4CCCC4)cc3)C2=O)cc1 (stereo not given),1,i,1.1,x,-50,46,103
COc1ccc(Cl)cc1N/C(N)=N/c1nc(C)cc(=O)[nH]1,7,i,0.78,x,x,x,103
COc1cccc(C2C(C(=O)Nc3ccc(C)cc3C)=C(C)Nc3ncnn32)c1OC (stereo not given),-10,i,0.98,-1.9,x,x,97
Cn1nnnc1SCC(=O)NC1CCCCC1,-4,i,0.9,-1.9,-47,57,84
O=C(c1cc([N+](=O)[O-])ccc1Cl)N1CCN(Cc2ccc3c(c2)OCO3)CC1,1,i,1.1,x,x,x,103

# (more compounds)
SMILES,PKD1 kinase inh,HSV augment,HSV augment primary fold,GALR2 agonist,Insulin prom inh,Insulin prom inh cell count,RGS16-Gao
CN(C)CCCSc1nc(-c2ccccc2)nc2c1CCC2,-3,i,0.79,-0.7,6,67,103
Cc1ccc(OCc2ccc(C(=O)Nc3nccs3)o2)cc1,4,i,0.77,-0.9,x,x,95
Clc1cccc(Oc2ncccn2)c1,-11,i,1,0.6,0,103,107
Cc1ccc(N2CC(C(=O)OCc3ccc([N+](=O)[O-])cc3)CC2=O)cc1 (stereo not given),-2,i,0.93,-1.8,-17,93,104
O=C(O)C(c1ccccc1)C(c1ccccc1)c1ccccc1 (stereo not given),-2,x,x,x,64,97,111
Cc1onc(-c2c(F)cccc2Cl)c1C(=O)NCc1cccs1,1,i,1.1,-1.4,3,150,104
O=C1CCCC(O)=C1N=Nc1ccc(Cl)c(Cl)c1,-5,i,0.98,x,-19,119,107
CCOc1cccc(CNCc2cccnc2)c1OCc1ccccc1,1,i,0.96,x,-80,64,109
CC(C)(C)n1nnnc1C(c1cccs1)N1CCN(Cc2ccc3c(c2)OCO3)CC1 (stereo not given),0,i,0.93,1.0,26,101,95
COc1ccc(NC(=O)c2ccccc2N(Cc2ccccc2)S(C)(=O)=O)cc1OC,2,i,0.9,x,-63,147,102
O=C(COc1ccccc1C(=O)NCc1ccncc1)Nc1ccc(Br)cc1,-7,i,0.94,x,27,106,117
[O-]/C(=C(\C(=S)Nc1cccc2ccccc12)[n+]1ccccc1)c1ccc(Cl)s1,-9,i,1,-0.2,-36,113,100
CCOC(=O)C1(CCCc2ccccc2)CCN(C(=O)CCOC)CC1,-7,i,0.87,x,x,x,100
Cc1nc2ccc3nc(NC(=O)c4ccc5c(c4)OCCO5)sc3c2s1,13,i,0.86,3.4,x,x,120
Cc1cc(Cl)ccc1NNC(=O)c1cccs1,x,i,1.1,x,x,x,83
CC1CCCCC1NC(=O)/C(C#N)=C/c1ccc2c(c1)OCCO2 (stereo not given),-5,i,0.8,-0.1,-125,37,91
Cc1ccc(Cn2c(N3CCCCCC3)nc3c2c(=O)[nH]c(=O)n3C)cc1,10,i,0.92,0.7,x,x,105
COc1ccc2c(c1OC)C(=O)O[C@@H]2[C@H]1c2c(cc3c(c2OC)OCO3)CCN1C,-1,i,0.79,-0.1,-59,140,80
COc1c(OC2OC(C(=O)O)C(O)C(O)C2O)cc(O)c2c(=O)cc(-c3ccccc3)oc12 (stereo not given),18,i,1,-0.5,40,91,107
CCOC(=O)Nc1ccc2c(COC(=O)CNS(=O)(=O)c3cccc(Br)c3)cc(=O)oc2c1,-5,i,0.91,0.1,-27,93,98
CCCN(C(=O)COc1ccc(Cl)cc1Cl)c1c(N)n(Cc2ccccc2)c(=O)[nH]c1=O,-10,i,0.9,x,x,x,96
NC(=O)CS(=O)(=O)c1nc2ccccc2n1Cc1ccccn1,0,i,0.88,x,x,x,103
Cc1oc(-c2ccccc2F)nc1CS(=O)CC(=O)NCc1cccs1 (stereo not given),2,i,1.1,-2.2,x,x,108
O=C1CC(c2ccccc2)CC(O)=C1C=NCc1ccccc1Cl (stereo not given),-3,x,x,-2.2,x,x,102
O=C(O)c1ccccc1N/C=C\[N+](=O)[O-],-5,i,1,x,x,x,101

# (more compounds)
SMILES,PKD1 kinase inh,HSV augment,HSV augment primary fold,GALR2 agonist,Insulin prom inh,Insulin prom inh cell count,RGS16-Gao
CN(C)c1ccnc(SCc2ccccc2Cl)c1C#N,-11,i,0.96,0.7,73*,101*,107
O=C(NC(=S)NCc1ccc2c(c1)OCO2)c1ccccc1,-6,i,1,-0.5,6,142,101
Cc1cc(Br)cc(Cl)c1OCC(=O)NC(=O)NCc1ccccc1,-4,i,0.99,0.9,x,x,103
COc1ccccc1N1CCN(/N=C/c2ccc(OC)c(OC)c2OC)CC1,-2,i,0.87,x,x,x,97
COc1ccc(N=C2SCC(=O)N2CCc2ccc(OC)c(OC)c2)cc1,x,i,0.97,x,x,x,103
Cn1nccc1C(=O)Nc1sc2c(c1C(N)=O)CCCC2,1,i,1.1,x,-5,96,94
CC(C)Nc1nc(NC(C)C)nc(NS(=O)(=O)c2ccc(N)cc2)n1,-5,i,1,-0.5,19,90,111
O=C(C1CCCO1)N1CCN(C(=S)Nc2ccccc2F)CC1 (stereo not given),-15,i,1.1,-1.4,-47,90,103
CCN(CC(=O)NCc1cccs1)c1ccc(S(=O)(=O)N2CCN(C)CC2)cn1,x,i,0.92,x,x,x,100
Cc1ccc(NS(=O)(=O)c2cc(C(=O)NCc3ccccn3)ccc2Cl)cc1,13,i,0.82,-4.7,x,x,100
Fc1ccc(Nc2cccc3nccnc23)cc1,-7,i,1,0.6,-31,92,102
Cc1nnc2c(NC(C)C)nc3ccccc3n12,4,i,0.98,-4.4,x,x,99
